eIF4H inh = inhibitors of RNA binding by human eIF4H; eIF4H fluorescence polarization binding assay; inhibition, % at 35 µM; Q15056; actives 0.94% (n = 290,000);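 active = 50% or more with normal probe brightness, or confirmed in later tests; inconclusive = above 50% with abnormal brightness, or retests that disagree; inactive = below 50% or failed in later tests; about a fifth of its hits are not listed in these tables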;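 note: calls also rest on retests at 20 µM and on dose response follow-up; 0% = protein and probe with vehicle and 100% = probe without protein; strong numbers were not always called active; many hits fall short of the cut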
Yeast UUG start = alters start codon recognition fidelity in yeast; S. cerevisiae UUG-firefly luciferase reporter, luminescence/redox ratio; activity score, % at 18.7 µM; actives 0.13% (n = 350,000); AID 602363;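 active = replicate mean at a twofold rise or more, about +100% in these data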;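 note: firefly luciferase made from a UUG start codon reports start codon fidelity; reporter light over untreated wells divided by growth signal over untreated wells; some hits fall short of that in this replicate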
MT1-MMP act inh = blocks activation of human MT1-MMP | AID 651647 | GFP/RFP ratio change, % at 20 µM | actives 0.061% (n = 360,000) | HT1080 RFP-PRO-GFP cells, GFP/RFP ratio fluorescence, overnight; percent of plate control window, DMSO zero | P50281;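 active = GFP/RFP ratio change of at least 30% with cell ATP level not reduced by more than half and red fluorescence within 50% of control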; note: strong numbers were not always called active
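Read-out: GFP/RFP fluorescence ratio; Test system: RFP-PRO-GFP reporter HT1080 cells; Compound dosing: single-point 20 µM compound, 1% DMSO; Times: overnight compound exposure at 37 °C.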
Rce1 inhib = inhibitors of yeast Ras-converting enzyme. Q03530. yeast membranes, quenched prenylated peptide cleavage fluorescence. calls only. actives 0.27% (n = 290,000);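 active = fall in fluorescence gain of 50% or more versus controls, with final raw signal at or below 3038400; inconclusive = same 50% fall but final raw signal above 3038400; inactive = fall in fluorescence gain under 50%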;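 note: plate controls were neutral control wells for no effect and wells lacking membranes for full effect; tested at 10 µM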
Target sequence (Q03530 whole entry, looked up): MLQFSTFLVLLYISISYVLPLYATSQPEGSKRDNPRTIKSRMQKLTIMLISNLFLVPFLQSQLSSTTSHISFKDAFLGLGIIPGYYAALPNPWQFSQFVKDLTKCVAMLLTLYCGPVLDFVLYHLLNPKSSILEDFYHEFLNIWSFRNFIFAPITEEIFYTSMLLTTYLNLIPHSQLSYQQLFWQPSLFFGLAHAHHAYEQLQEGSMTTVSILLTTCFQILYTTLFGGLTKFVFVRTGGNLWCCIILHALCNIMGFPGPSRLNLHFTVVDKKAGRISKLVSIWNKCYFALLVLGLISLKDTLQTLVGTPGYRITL
PABP polyA inh = PABP-poly(A) binding inhibition; P11940; inhibition, % at 35 µM; actives 1% (n = 290,000); PABP-poly(A) RNA binding, fluorescence polarization; AID 2014;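 active = 50% or more with normal probe brightness, or confirmed in later tests; inconclusive = above 50% with abnormal brightness, or retests that disagree; inactive = below 50% or failed in later tests; about a fifth of its hits are not listed in these tables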;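 note: calls also rest on retests at 20 µM and on dose response follow-up; controls were probe without protein and protein plus probe with vehicle; some compounds called inactive have numbers as strong as hits; many hits fall short of the cut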
Env fusion inh = blocks HIV Env-driven cell-cell fusion. HeLa-JRFL Env/CEM21 cell fusion, luciferase. inhibition, % at 12.3 µM. actives 1.1% (n = 360,000);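 active = mean replicate inhibition score of at least 50 and every replicate individually at or above 50; inconclusive = only one of the two criteria met; inactive = mean below 50 and not all replicates reaching 50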;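 note: 0% = plate neutral controls and 100% = maraviroc near 300 nM; one replicate is shown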
CSC inhib = cancer stem cell inhibition. cancer stem cell-like cells viability, luminescence. inhibition, % at 7.5 µM. actives 1.1% (n = 300,000);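 active = mean at 75% or more and at least half the replicates too; inconclusive = mean and replicates disagree; tested in HMLE shEcad cells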;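 note: 0% = median of negative and 100% = median of positive control wells; the first replicate is given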
MT1-MMP act inh RFP = second read-out of MT1-MMP act inh, no call of its own (marks repeat the call); RFP signal change, %; measured here: RFP expression control read;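 0 = vehicle wells; hits needed this value within 50% of zero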
* hit, by the source's call; i = inactive; ? = inconclusive; / = not tested or not shown. An excerpt; the hit share may differ from the screen's.

Preview:
SMILES	eIF4H inh	Yeast UUG start	MT1-MMP act inh	MT1-MMP act inh RFP	Rce1 inhib	PABP polyA inh	Env fusion inh	CSC inhib
O=[N+]([O-])/C(C(Cl)=C(Cl)Cl)=C(\Sc1ccccc1)N1CCCCC1	-2	/	0	-4	i	7	-4	24
CC(Oc1ccc(Br)cc1)C(=O)NCc1ccccn1 (stereo unspecified)	4	/	1	3	i	-3	-2	-13
Cc1cc(C)n(C(=O)CCCn2cc([N+](=O)[O-])cn2)n1	4	/	-2	7	i	5	5	-10
Cc1cc(C(=O)N/N=C/c2cccc([N+](=O)[O-])c2)c2ccccc2n1	-3	/	1	-1	i	2	/	-1
CC(=O)N1CCC(C(=O)NCCOc2ccc(C)cc2)CC1	6	/	0	2	i	2	4	5

Results (from the top)
SMILES	eIF4H inh	Yeast UUG start	MT1-MMP act inh	MT1-MMP act inh RFP	Rce1 inhib	PABP polyA inh	Env fusion inh	CSC inhib
O=[N+]([O-])/C(C(Cl)=C(Cl)Cl)=C(\Sc1ccccc1)N1CCCCC1	-2	/	0	-4	i	7	-4	24
CC(Oc1ccc(Br)cc1)C(=O)NCc1ccccn1 (stereo unspecified)	4	/	1	3	i	-3	-2	-13
Cc1cc(C)n(C(=O)CCCn2cc([N+](=O)[O-])cn2)n1	4	/	-2	7	i	5	5	-10
Cc1cc(C(=O)N/N=C/c2cccc([N+](=O)[O-])c2)c2ccccc2n1	-3	/	1	-1	i	2	/	-1
CC(=O)N1CCC(C(=O)NCCOc2ccc(C)cc2)CC1	6	/	0	2	i	2	4	5
O=C(CS(=O)(=O)c1ccccc1)Nc1ccc(Br)cn1	-7	9	2	1	i	-7	-4	-4
O=C(CSc1nnnn1-c1cccnc1)Nc1ccccc1F	-11	-1	-5	-2	i	-9	/	-2
O=C(COc1ccc(Br)cc1CNCCc1ccccc1)NCc1ccccc1	-2	-5	-4	-3	i	?	15	31
O=C(/C=C/c1ccccc1)NNC(=O)c1cccs1	-1	/	-4	-3	i	-1	-13	4
COc1ccc2c(c1)[nH]c1c(=O)n(/N=C/c3ccc(OC)c(COc4ccccn4)c3)cnc12	-3	-5	7	3	i	-12	0	15
CCOc1ccc(S(=O)(=O)NCc2ccc3c(c2)OCO3)cc1C	6	13	-5	7	i	-5	0	-3
Cc1ccccc1NC(=O)CSc1nnc(C)c2ccccc12	10	-8	-1	-2	/	-1	-8	-10
CC1=Nc2ccccc2N=C(NC(=O)CSC(=S)N2CCN(C)CC2)C1c1ccccc1 (stereo unspecified)	4	-24	0	1	i	-4	8	-9
CC(=O)N(c1ccccc1)c1ccc([N+](=O)[O-])cc1[N+](=O)[O-]	21	10	-1	4	i	-9	9	7
COc1cc(C2C3=C(CC(C)(C)CC3=O)N(C)C3=C2C(=O)CC(C)(C)C3)ccc1O	-1	0	0	5	i	3	0	4
COc1ccc(C(=O)N/N=C\c2ccc(OC)c(COc3ccccc3Br)c2)c(OC)c1	2	-17	1	-2	i	-3	-5	1
COc1cc(CNCc2ccco2)ccc1OCc1ccccc1	-2	-11	2	-8	i	-1	/	-6
Cc1ccccc1C(=O)N1CCC(n2nccc2NC(=O)CCOc2ccccc2)CC1	0	-3	0	-2	i	15	1	-6
COc1cccc(N2CCN(CC(=O)C34CC5CC(CC(C5)C3)C4)CC2)c1	-8	-3	-3	1	i	-15	/	/
NS(=O)(=O)c1ccc(CCNC(=O)CC(NC(=O)c2ccccc2Cl)c2ccccc2)cc1 (stereo unspecified)	-4	/	-2	5	i	-6	4	7
CCN(C[C@H]1N[C@@](C)(C(=O)OC)[C@H]2C(=O)N(Cc3ccccc3)C(=O)[C@@H]12)C(=O)Nc1ccc(OC)cc1	/	-10	1	5	/	/	46	/
O=C(O)c1ccc(-n2cc(C(=O)c3ccccc3O)cn2)cc1	24	-16	-3	2	i	26	6	-9
O=C(O)/C(=C/c1ccc(Cl)c([N+](=O)[O-])c1)c1ccc(S(=O)(=O)N2CCCCC2)s1	/	-5	4	-2	/	/	20	/
CC(C)N(C(=O)CSc1nc2ccccc2n1Cc1ccccc1F)C(C)C	-7	/	-12	-18	i	-6	-8	12
C=CCC[C@H](Cc1ccc(F)cc1)C(=O)OC[C@@H](Cc1c[nH]c2ccccc12)NC(=O)[C@H](CC=C)CC(=O)N(CCO)Cc1ccccc1	/	-2	-8	-21	/	/	-150	92*
O=C(NCC1CCCO1)c1ccc(S(=O)(=O)Nc2ccc(F)cc2)cc1 (stereo unspecified)	/	14	1	-5	/	/	1	/
CC(OC(=O)c1nsc(Cl)c1Cl)C(=O)NCc1ccc2c(c1)OCO2 (stereo unspecified)	-8	-18	3	1	i	3	/	5
Cc1c(NC(=O)C(C)C)cccc1-c1nc2ncccc2o1	-10	-12	-4	-2	i	-2	-13	-9
O=C(CC1C[C@H](C(=O)N2CCCCC2)[C@@]2(CCc3ccccc3)c3[nH]c4ccccc4c3CCN2C1=O)NCCCn1ccnc1 (stereo partly specified)	/	-21	-3	-7	/	/	-62	/
CC1=CN2C(=N)/C(=C\c3cn(CCCOc4ccccc4)c4ccccc34)C(=O)N=C2S1	12	/	4	0	i	7	24	32

One compound at a time, as listed above:
`C=CCC[C@H](Cc1ccc(F)cc1)C(=O)OC[C@@H](Cc1c[nH]c2ccccc12)NC(=O)[C@H](CC=C)CC(=O)N(CCO)Cc1ccccc1` as listed: eIF4H inh: /; Yeast UUG start: -2; MT1-MMP act inh: -8; MT1-MMP act inh RFP: -21; Rce1 inhib: /; PABP polyA inh: /; Env fusion inh: -150; CSC inhib: 92*
`CC(C)N(C(=O)CSc1nc2ccccc2n1Cc1ccccc1F)C(C)C` as listed: eIF4H inh: -7; Yeast UUG start: /; MT1-MMP act inh: -12; MT1-MMP act inh RFP: -18; Rce1 inhib: i; PABP polyA inh: -6; Env fusion inh: -8; CSC inhib: 12

The list continues.
SMILES	eIF4H inh	Yeast UUG start	MT1-MMP act inh	MT1-MMP act inh RFP	Rce1 inhib	PABP polyA inh	Env fusion inh	CSC inhib
Cc1ccc(S(=O)(=O)N(CCO)c2cc3c(s2)CCCC3)cc1	2	-12	-9	-5	i	-10	/	0
O=C(NNc1ccnc2cc(Cl)ccc12)C1CCCCC1	7	/	-8	-27	i	-7	10	3
CC(=O)C1=C(O)CCC1=N	-6	-15	-4	1	i	8	/	-12
COc1ccc(/C=C(/NC(=O)c2ccco2)C(=O)N2CCc3ccccc32)cc1OC	-3	/	2	6	i	0	4	-17
O=C(O)c1ccc(N2C(=O)CC(N3CCC(c4nc5ccccc5[nH]4)CC3)C2=O)cc1 (stereo unspecified)	0	/	0	-1	/	45	10	7
O=C(NC1=NCCS1)c1cccs1	2	-15	-4	7	i	28	/	-6
CCOC(=O)C1=CN(Cc2ccco2)S(=O)(=O)N(CC)C1c1ccc(C(F)(F)F)cc1 (stereo unspecified)	/	5	-9	-11	/	/	14	/
COc1ccc(CCNC(=O)c2ccc(-c3ccc([N+](=O)[O-])cc3Cl)o2)cc1OC	-1	/	-3	-2	i	-3	39	26
Cc1ccc(S(=O)(=O)Nc2cccc3c2O[C@H](CN(C)Cc2ccc(-c4ccccc4)cc2)[C@@H](C)CN([C@H](C)CO)C3=O)cc1	/	-13	-3	-9	/	/	-144	/
O=C(CN1CCC(NC(=O)c2ccccc2)CC1)NCc1ccccc1F	0	-23	-8	0	i	-4	-59	-9
CSc1ccc(S(=O)(=O)NCC(=O)OCC(=O)NCc2ccco2)cc1[N+](=O)[O-]	/	-15	6	3	i	/	-8	-9
Cc1ccccc1NC(=O)COC(=O)c1ccc2c(c1)OCCO2	/	2	-1	7	/	/	2	/
O=C(CSc1nnc(COc2ccccc2)o1)N1CCCCC1	-4	-6	-2	-1	i	5	-3	1
O=C(Cc1ccccc1)Nc1cc2c(cc1Cl)OCCCO2	-4	-12	-8	2	i	-12	0	-13
CNC(=O)c1sc(-c2ccccn2)nc1C	13	/	4	-4	i	23	-2	-3
COC(=O)Cn1c2ccc(F)cc2c2nc(C)sc21	-8	-20	1	3	i	1	5	-5
CCOc1cccc(-c2nn3c(-c4cc(C)[nH]n4)nnc3s2)c1	0	-10	5	-2	i	-4	/	-6
FC(F)(F)c1ccccc1CN1CCN(C2CCCCCC2)CC1	-9	-3	1	2	/	-14	-17	45
COc1ccccc1NC(=O)Cn1nnc(-c2ccccc2NC(=O)c2ccco2)n1	-8	-23	-2	-5	i	24	/	49
Cc1c(NC(=O)c2ccc(COc3ccc4ccccc4c3)o2)c(=O)n(-c2ccccc2)n1C	-3	-10	6	-2	i	2	/	9
Cc1[nH]nc2c1C1(CCOC1C)C(C#N)=C(N)O2 (stereo unspecified)	-19	-22	1	1	i	-8	/	-6
COc1ccc(NC(=O)CSc2nc3ccc(OC)cc3[nH]2)cc1	-1	-20	-7	-3	i	-9	-16	-6
Cc1ccc[n+](CC(=O)Nc2ccc(N(C)C)cc2)c1	31	-9	2	6	i	-1	-7	-3
O=C1c2ccccc2S(=O)(=O)c2cc(C(=O)N3CCC(N4CCCC4)CC3)ccc21	/	-5	3	4	i	/	20	0
CC(C(=O)NC1CCCCC1)N(Cc1ccccc1)C(=O)c1snc(C(N)=O)c1N (stereo unspecified)	-2	-7	-1	3	i	-6	-9	-1
COc1ccc(N(C(=O)C(C)C)S(=O)(=O)c2cccc3cccnc23)cc1	2	/	-5	1	i	-6	-14	4
Cc1cc(C)cc(NC(=O)CN2CCc3ccccc3C2)c1	8	0	-2	-3	i	-10	-40	11
CS(=O)(=O)N(CC(=O)N1CCc2ccccc2C1)c1ccc(Cl)cc1F	-10	1	-3	1	i	-4	21	0
CC(C)c1nnc(NC(=O)CCC(=O)NCc2ccc3c(c2)OCO3)s1	-3	-10	0	2	i	-6	/	5
O=C(O)CCC(=O)N1CCN(c2ccccn2)CC1	4	/	0	0	i	-6	/	2
